H5N1 CPE: MDCK cell protection from H5N1 avian flu; cytopathic effect, luminescence, 72 h; active compounds read high; no value below 0 was filed and about half of the inactive calls have no number; reference of the scale not given here; inhibition, % at 50 µM; 96,000 compounds, 0.07% hits; in the data active = inhibition above about 25%
Active calls of the source: *; i = inactive. Not all compounds are listed; the hit share may differ from the screen's.

SMILES | H5N1 CPE
COC(=O)CN(C#N)c1nc(SC)nc(N(C)C)n1 | 12
C=CCN1C(=O)/C(=C2/Sc3ccccc3N2C)SC1=Nc1ccccc1C | i
CN(C)C(=O)CN1C(=O)C2CC=C(Cl)CC2C1=O (stereo unspecified) | 1.7
COc1ccc(CCn2c(O)c(C=NCCCn3ccnc3)c(=O)[nH]c2=O)cc1OC | 0.3
Cc1nc2nc[nH]n2c(=O)c1CCC(C)C | 0.2
CC1Cn2c(nc3c2c(=O)[nH]c(=O)n3C)O1 (stereo unspecified) | i
O=C(CN1NS(=O)(=O)c2ccccc2C1=O)Nc1ccccc1OC(F)F | 0.6
COC(=O)c1nn(-c2ccccc2)c(=O)cc1Oc1ccccc1 | i
Cc1cc(OCc2nc(-c3ccc(NC(=O)c4cccnc4)cc3)no2)ccc1Cl | 0.5
Cc1ccc(S(=O)(=O)NCCCCCC(N)=O)cc1 | 0.1
O=C(Nc1ccc(O)cc1)c1cc2n(n1)C(C(F)(F)F)CC(c1ccco1)N2 (stereo unspecified) | i
CCNS(=O)(=O)c1ccc(NC(=O)Nc2cccc(OC)c2)cc1 | i
CCOC(=O)c1c(C)[nH]c(NC(=O)N2CCOCC2)c1C | 0.9
Cc1cc(C)nc(N2CCCC(C(=O)NC3CCCC3)C2)n1 (stereo unspecified) | i
O=C(CCCOc1ccc(Cl)cc1Cl)Nc1ccncc1 | i
O=C(NCCC1=CCCCC1)c1ccc(Br)o1 | 0.1
COC(=O)Cc1c(C)c2ccc(OC(=O)c3ccco3)cc2oc1=O | 1.6
COc1cccc(CNC(=O)CCCNS(=O)(=O)c2cccs2)c1 | 0.8
CCCC(=O)NCCSC | 0.2
Cc1ccc2nc(N3CCN(C)CC3)[nH]c2c1 | 0.6

In another format: two of the compounds above
molecule	H5N1 CPE
COC(=O)Cc1c(C)c2ccc(OC(=O)c3ccco3)cc2oc1=O	1.6
CCCC(=O)NCCSC	0.2

The list goes on.
SMILES | H5N1 CPE
COCCNC(=O)COc1cc(=O)n(C)c2ccccc12 | i
c1ccc(SCc2nc3ccccc3[nH]2)nc1 | 0.8
COc1ccccc1N1C(=O)CC(Sc2ncccc2C(=O)O)C1=O (stereo unspecified) | i
CC(C)OC(=O)CSc1nc(N)c(C#N)c(-c2cccs2)c1C#N | i
CCCC(=O)Nc1nc(-c2ccc3c(c2)OCCO3)cs1 | i
CCn1ncc(C2=NOC(C(=O)Nc3c(C)n(C)n(-c4ccccc4)c3=O)C2)c1C (stereo unspecified) | 0.8
COCC(=O)N(C)c1nnc(-c2ccc([N+](=O)[O-])cc2)s1 | i
CCOc1ccccc1C(=O)N1CCC(n2nnc3cc(C)ccc32)CC1 | 0.2
Cc1ccc(CCN2CC(C(=O)NCCCN3CCOCC3)CC2=O)cc1 (stereo unspecified) | 1.4
COc1ccc(-c2[nH]c(-c3ccccc3)nc2SCC(=O)NCc2ccco2)cc1OC | i
CCCC(C(=O)NC1CCCC1)N(CCCN1CCOCC1)C(=O)c1snc(C(N)=O)c1N (stereo unspecified) | i
CCN(C(=O)CCc1nc(-c2ccc(OC)cc2)no1)c1cc(OC)ccc1OC | i
Cc1c(C(O)CN2CCN(Cc3ccc4c(c3)OCO4)CC2)c2ccccc2n1C (stereo unspecified) | 11
COc1cc(-c2nc(S(=O)(=O)c3ccc(Cl)cc3)c(N3CCOCC3)o2)cc(OC)c1OC | i
CN(C)CCCNCCNC(=O)/C=N\O | 0.5
CCC(=O)N1CCc2cc(S(=O)(=O)NC(C(=O)NCc3ccc(C)cc3)C(C)C)ccc21 (stereo unspecified) | i
O=C(CC1(O)C(=O)Nc2ccccc21)c1ccc2c(c1)OCO2 (stereo unspecified) | i
COc1ccc(N2Cc3cccc(C(=O)O)c3C2=O)cc1 | 0.6
OCC1CCCN(C(=S)NCCc2ccccc2)C1 (stereo unspecified) | 0.2
O=C(NCc1ccc(Cl)cc1)C1CCCN(S(=O)(=O)c2cnc[nH]2)C1 (stereo unspecified) | i
CC(C)(C)N=C1NC(=NC(C)(C)C)c2ccccc21 | i
CCOC(=O)N1CCN(C(=O)C2CCN(C(=O)c3cc4sccc4n3CC)CC2)CC1 | 0.2
Cc1ccc2c(CSc3nnc(N)s3)cc(=O)oc2c1 | 1.0
Cn1c(CCNC(=O)c2ccc(Cl)c(Cl)c2)nnc1SCc1ccc(Cl)c(Cl)c1 | i
Cc1ccc(OCc2nc(-c3ccccc3)no2)c(C)c1 | i
COc1ccc(Nc2oc(COc3ccccc3F)nc2C#N)cc1 | i
CCOC(=O)c1cc2occc2n1CC(=O)N1CCN(C(=O)c2ccco2)CC1 | 0.2
Cn1c(SCC(=O)N2CCOCC2)nnc1-c1ccc(Cl)cc1Cl | i
CCC1OC23CCCCC2C(C#N)(C(=N)O3)C1(C#N)C#N (stereo unspecified) | 4.7
COc1ccc(/C=N/NC(=O)c2cccc(Br)c2)cc1Cn1cc(Cl)cn1 | 0.2

Looked up above.
H5N1 CPE, `CCOC(=O)N1CCN(C(=O)C2CCN(C(=O)c3cc4sccc4n3CC)CC2)CC1` → 0.2
H5N1 CPE, `COc1ccc(/C=N/NC(=O)c2cccc(Br)c2)cc1Cn1cc(Cl)cn1` → 0.2

(more compounds)
SMILES | H5N1 CPE
O=S(=O)(NCc1ccccc1)c1ccc(Cl)c(S(=O)(=O)NCc2ccccc2)c1 | 0.6
COC(=O)/C=c1/sc2nc3ccccc3n2c1=O | 0.5
CCC(Sc1nc2ccccc2s1)C(=O)Nc1nnc(C)s1 (stereo unspecified) | 0.8
O=C(c1cc2nc(-c3ccco3)cc(C(F)(F)F)n2n1)N1CCc2ccccc2C1 | 0.8
CCOC(=O)c1c(N2C(=O)C=CC2=O)sc(C)c1C | i
O=C(Nc1nnc(-c2ccc(Cl)cc2)o1)c1nc2ccccc2s1 | 0.8
COc1ccc(C2N=C(N)N=C(N)N2c2ccc(C)cc2)cc1 (stereo unspecified) | i
CCOC(=O)CCSCC(=O)Nc1cc(C)on1 | i
O=C(O)CC(NS(=O)(=O)c1ccc(Br)cc1)c1ccco1 (stereo unspecified) | 0.1
COC(=O)c1c(S(=O)(=O)NCc2ccccc2)sc(C(=O)O)c1C | 0.1
CNC(=O)COC(=O)c1nc(-n2nc(C)cc2C)ccc1Cl | i
CCOC(=O)c1cc(-c2ccc(OC)cc2F)nc2c1c(C)nn2CCC#N | 0.3
COc1ccc(OC)c(N(CC(=O)NCc2cccnc2)S(C)(=O)=O)c1 | 0.1
O=C(COc1cccc(NC(=O)c2ccco2)c1)c1ccccc1 | i
COc1cc(NC(=O)Nc2cccc(C(C)=O)c2)cc(OC)c1OC | i
CN(NC(=O)NN)c1ncc(C(F)(F)F)cc1Cl | i
COc1ccc(NC(=O)CCN2CCCCC2)cc1 | i
O=C(CN(C1CC1)S(=O)(=O)c1ccc(S(=O)(=O)NC2CCCCC2)cc1)Nc1ccccc1 | 0.9
O=C(NCSc1ccnc(SCNC(=O)c2ccc(F)cc2)n1)c1ccc(F)cc1 | i
O=C(O)CCCC(=O)Nc1ccc(Sc2ccc([N+](=O)[O-])cc2)cc1 | 0.8
CC(=O)N1CCN(C2c3cccc4cccc(c34)C2NS(=O)(=O)c2ccccc2)CC1 (stereo unspecified) | i
CCOC(=O)c1[nH]c2ccc(Cl)cc2c1NC(=O)c1nonc1C | i
COc1ccc(C(=O)NC(=S)Nc2nc(C)c(C(=O)N(C)C)s2)cc1 | i
Nc1c(C(=O)NCc2ccccc2)c2nc3ccccc3nc2n1-c1ccc2c(c1)OCO2 | i
COc1cccc(-c2nnc(N(C)C(=O)C3CCOC3)s2)c1 (stereo unspecified) | i
COc1ccc(COCC(O)CN2CCOCC2)cc1OC (stereo unspecified) | 1.2
Cc1ccc(-c2nnn(CC(=O)Nc3ccc(S(=O)(=O)N4CCC(C)CC4)cc3)n2)cc1 | 0.1
COc1ccc(C2C(C#N)=C(N)Oc3n[nH]c(C)c32)cc1CN1CCN(c2ccc(F)cc2)CC1 (stereo unspecified) | i
O=C(C=C1CCN(c2ncc(C(F)(F)F)cc2Cl)CC1)NNC(=O)Nc1ccccc1 | i
O=C(CSCCO)Nc1cccc(C(F)(F)F)c1 | 0.8

Five consecutive records already listed:
SMILES | H5N1 CPE
COC(=O)CN(C#N)c1nc(SC)nc(N(C)C)n1 | 12
C=CCN1C(=O)/C(=C2/Sc3ccccc3N2C)SC1=Nc1ccccc1C | i
CN(C)C(=O)CN1C(=O)C2CC=C(Cl)CC2C1=O (stereo unspecified) | 1.7
COc1ccc(CCn2c(O)c(C=NCCCn3ccnc3)c(=O)[nH]c2=O)cc1OC | 0.3
Cc1nc2nc[nH]n2c(=O)c1CCC(C)C | 0.2

Continued.
SMILES | H5N1 CPE
Cc1noc(C)c1S(=O)(=O)N(CC(=O)O)c1ccc2c(c1)OCO2 | i
Cc1ccc(C(=O)/C=C/Nc2ccc([N+](=O)[O-])cc2Br)cc1 | i
CSc1nc2[nH]c3c(c2c2nnnn12)CCCC3 | 2.0
Cc1cc(C(=O)CSc2n[nH]c(N)n2)c(C)n1C1CC1 | 0.1
CN(C)S(=O)(=O)N1CCc2ccccc2C1 | i
O=C(CCSCCC(=O)NCCN1CCOCC1)NCCN1CCOCC1 | 0.4
COc1ccc(NCc2nnc(SCC(=O)N3CCCc4ccccc43)n2C)cc1 | 0.1
COc1ccc(/C=N/n2cncn2)cc1CSc1ccccn1 | 0.8
CCOC(=O)CNC(=O)CSc1ncnc2c1nnn2-c1ccc(F)cc1 | 0.7
CCOC(=O)c1ccc(NC(=O)Cn2nnc3ccccc32)cc1 | i
COc1ccc(-c2[nH]ncc2Oc2ccccc2OC)c(O)c1 | 2.3
COc1ccc(-n2cnc3cc(NCc4ccco4)ccc32)cc1 | i
CCCCCOc1ccc(C(=O)NC(C(=O)O)C(C)C)cc1 (stereo unspecified) | i
Cn1nnnc1SCC(=O)Nc1ccc(N2CCOCC2)cc1 | 1.5
CCCCCCn1c(N2CCN(c3ccccc3)CC2)nc2c1c(=O)n(C)c(=O)n2C | i
CC(=O)N1CCc2cc(S(=O)(=O)Nc3cccc(C(F)(F)F)c3)ccc21 | 0.6
Cc1ccc(S(=O)(=O)N2CCCC2CO)cc1 (stereo unspecified) | 0.2
Cc1ccc(SCCNC(=S)Nc2ccc(C)c(C)c2)cc1 | i
CCCCN1C(=O)C2NN=C(C(=O)OC)C2C1=O (stereo unspecified) | 0.3
COc1ccc(N2CC(C(=O)Nc3nccs3)CC2=O)cc1 (stereo unspecified) | 0.4
O=C(Cn1ncc2c(=O)oc3ccccc3c21)N1CCC(N2CCCCC2)CC1 | 0.7
O=C(Nc1nc2ccccc2n1CCN1CCCCC1)C1CCCCC1 | i
COC(=O)c1ccc2c(c1)NC(=O)C(N1CCCCC1)S2 (stereo unspecified) | 0.7
Cc1ccc(OCC(=O)N/N=C\c2c(C)n(C)c3ccccc23)c([N+](=O)[O-])c1 | 0.6
CC(C)(C)c1cc(CNC2CS(=O)(=O)C[C@@H]2O)cc(C(C)(C)C)c1O (stereo partly specified) | i
CC1CCc2cc(F)ccc2N1C(=O)CN1C(=O)c2ccccc2C1=O (stereo unspecified) | 1.6
O=C(Nc1cc(C(F)(F)F)ccc1N1CCOCC1)c1cccs1 | i
O=C(CSc1ccc(Cl)cc1)NC1CCCC1 | i
COC(=O)/C(=C\Nc1ccc(Cl)cc1Cl)NC(=O)c1ccccc1 | i
CCCC(c1nnnn1C1CCCCC1)N1CCN(c2ncccn2)CC1 (stereo unspecified) | 2.3
CCOC(=O)c1cc2ccc(OC)cc2oc1=O | i
Cc1ccc(C23CC4CC(CC(NC(=O)NC(C)(C)CO)(C4)C2)C3)cc1 | i
c1ccc(CN2CCN(c3nc(NCc4ccco4)c4ccccc4n3)CC2)cc1 | i
N#CCSc1nnc(-c2ccccc2O)n1CCc1ccccc1 | 1.0
CC1(C)CC(=O)C2=C(C1)OC(c1cccs1)C(C#N)=C2N (stereo unspecified) | i
c1ccc2c(c1)C(=NC1CCCCC1)NC2=NC1CCCCC1 | 3.0
Cc1ccc2cc(CN(CC3CCCO3)C(=O)NC3CCCCC3)c(=O)[nH]c2c1C (stereo unspecified) | i
Clc1ccc(Cl)c2sc(N3CCCC3)nc12 | i
COc1cccc(N2CCN(C(=O)c3cccnc3)CC2)c1 | 0.4
CCCn1c(C)cc(/C=C(\C#N)C(=O)OCC(=O)NC(=O)NCC)c1C | i
Cc1cccc(C(=O)NCCc2csc(C)n2)c1 | i
O=C(C1CCCN(S(=O)(=O)c2ccccc2)C1)N1CCCc2ccccc21 (stereo unspecified) | 2.2
O=C1c2[nH]nc(-c3ccccc3O)c2C(c2ccccc2)N1Cc1ccco1 (stereo unspecified) | 2.9
CCOc1ccccc1N1CC(C(=O)N2CCc3ccccc3C2)CC1=O (stereo unspecified) | i
COc1ccc(CC(=O)Nc2ccc(C(=O)NCC(C)C)cc2)cc1 | i
CC(C)(C)c1nnc2sc(SCC(=O)N3CCCc4ccccc43)nn2c1=O | i
Cc1ccc2c(c1)N(CC(=O)N1CCN(c3nc4ccccc4s3)CC1)C(=O)C(C)O2 (stereo unspecified) | 0.2
COc1cccc2cc3c(=O)oc4ccccc4c3nc12 | i
CC(=O)c1cc2c(cc1NC(=O)CN1CCCCCC1)OCO2 | 0.5
CC(C)NC(=O)c1ccc2c(=O)n(C3CCCC3)c(=S)[nH]c2c1 | i

Screens: PubChem, SRMLSC
